PMP22 txn = Cell-based coincidence reporter assay to measure PMP22 gene transcription in S16 Pmp22-F2sN cells - Primary screen; S16 Pmp22-F2sN Schwann cells (luciferase reporters placed in the Pmp22 gene), FLuc/NLuc coincidence luminescence, 24 h; actives 2% (n = 43,000); Potency, µM (titrated, usually from 57.5 µM), for the others: at the top dose activity change, negative = inhibition, most hits filed as inhibitors; active = clear falling dose curves in both reporters; inconclusive = both reporters move, but less clearly or upward; inactive = either reporter flat; the % is the NLuc reporter signal; note: % is set by controls: 0 for no effect and ±100 for the full control effect; some results filed as inactive show a strong effect at the top dose
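S16 Schwann cells carrying FLuc/NLuc coincidence reporter in the Pmp22 3' UTR treated with compound 24 h at 37C; FLuc then NLuc luminescence read sequentially by dual-luciferase reagents.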
HTT promoter inh = Primary qHTS for Identification of Small Molecule Inhibitors of Huntingtin Promoter Activity; HEK293 HTT promoter firefly luciferase reporter (activity 0% = vehicle and -100% = no light), 24 h; Potency, µM (top dose mostly 57.5 µM), for the others: at the top dose activity change, negative = inhibition, actives largely listed as inhibitors; actives 0.93% (n = 48,000); active = well fitted inhibition curve with a large enough effect; inconclusive = small, poorly fitted or top-dose-only effect; inactive = no such curve, though single readings can be large or run the other way; note: nearly all actives have a fitted effect of over 50% in size
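HEK293 luciferase promoter-reporter cells (2,500/well) plated 24 h, then compounds added at up to 57.5 uM final for 24 h at 37 °C. Firefly luminescence by Dual-Glo, normalized to vehicle (0%) and zero RLU (-100%).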
Starred values were filed as active, the others as inactive; ? = inconclusive; . = no result given; & = joins results of further samples; [ ] = remark or other dose. Potency is the fitted concentration of half-maximal effect.

Under each structure: PMP22 txn	HTT promoter inh
1. CNS(=O)(=O)c1cn(CC(=O)Nc2ccc(C)c(N(C)C)c2)cc1S(=O)(=O)NC
  -17%	8%
2. CCOC(=O)c1cc(-c2ccccc2)n(CCC(=O)Nc2ccccc2CC)c1C
  ?	-5%
3. COc1ccccc1N1CCN(S(=O)(=O)c2c(C)sc3ncn(CC(=O)Nc4ccc(C(C)C)cc4)c(=O)c23)CC1
  16%	-11%
4. Cc1ccccc1NC(=O)Cn1cc(C(=O)c2cccs2)c2ccccc21
  ?	?
5. COc1cccc(CN2CCc3nc(N4CCN(C)CC4)ncc3C2)c1
  -8%	-15%
6. CCOc1ccccc1NC(=O)Cn1c(=O)n(Cc2ccccc2)c(=O)c2c(C)c(C(=O)N(C)C)sc21
  19%	-3%
7. CC(Nc1oc(-c2ccc(COc3ccccc3)o2)nc1C#N)c1ccccc1 (stereo not drawn)
  ?	-8%
8. CC(C)(C)c1ccc(C(=O)Nc2ccc3nc(SCC(=O)N4CCCC4)sc3c2)cc1
  ?	14µM*
9. COc1ccc(C(=O)Nc2ccc(-c3nnc4n3CCCCC4)cc2)cc1
  19%	-10%
10. COC(=O)c1ccn(-c2nc(-c3ccc(Cl)cc3)cc(C(F)(F)F)n2)n1
  -23%	-24%
11. CCCSC1=NC2(CCN(C(=O)NC3CCCCC3)CC2)N=C1c1ccc(OC)cc1
  -17%	?
12. CCCCc1ccc(NC(=O)c2ccc3c(c2)CCN3S(=O)(=O)c2ccccc2)cc1
  ?	?
13. Cc1cc(F)ccc1NC(=O)CCS(=O)(=O)c1cc2c3c(c1)CCN3C(=O)CC2
  33%	-5%
14. CCOC(=O)c1c(NC(=O)/C=C/c2ccc(OCC)cc2)sc(C(C)=O)c1C
  -20%	-3%
15. COc1ccc(NC(=O)CN2CCCN(Cc3ccccc3)S2(=O)=O)cc1
  0%	2%
16. COc1c(N2C[C@@H]3CCCN[C@H]3C2)c(F)cc2c(=O)c(C(=O)O)cn(C3CC3)c12
  .	1%
17. Cc1ccc(CNC(=O)CCc2cn(C)c3ccccc23)cc1
  -2%	-6%
18. CCc1oc2ccccc2c1C(=O)c1cc(Br)c(O)c(Br)c1
  .	?
19. CCOC(=O)N1CCc2c(sc(NCc3cccc(F)c3)c2C(=O)Nc2ccc(OCC)cc2)C1
  -16%	13%
20. Cn1nnnc1SCCCNCc1cccc(OCc2ccc(Cl)cc2)c1
  ?	-11%
21. CCCCCNc1nc2c(-c3ccccc3)nnn2c2ccccc12
  2%	-17%
22. COc1ccc(CCNC(=O)CCCn2c(=O)c3ccccc3n(Cc3ccc(C)cc3)c2=O)cc1OC
  2%	-5%
23. COc1cc(C(=O)N2CCN(c3ccc(Nc4ccc(C)cc4)nn3)CC2)cc(OC)c1OC
  -11%	-10%
24. COc1cccc(N2CCN(c3ncnc4c3nc3n4CCCCC3)CC2)c1
  ?	?
25. COc1cc(NC(=O)c2oc3c(c2C)-c2nn(Cc4cccc(Cl)c4)cc2CC3)cc(OC)c1
  -11%	6%
26. CCN(CC)c1ccc(NC(=O)CCS(=O)(=O)c2ccc3c(c2)oc(=O)n3C)c(C)c1
  -12%	-9%
27. Cc1cc(=O)[nH]c2nnc(SCc3ccc(Cl)cc3Cl)n12
  5%	-13%
28. COc1cccc(N2CCN(C(=O)Cn3ncc4c5ccccc5n(C)c4c3=O)CC2)c1
  14%	0%
29. Cn1nnnc1SCCCNCc1ccc(-c2ccc(Br)cc2)o1
  -22%	?
30. Cc1ccc(Cl)cc1NC(=O)Cn1c(=O)n(Cc2ccccc2)c(=O)c2oc3ccccc3c21
  5%	-10%
31. O=S(=O)(c1ccc(-c2cnc(C3CC3)o2)cc1)N1CCN(c2ccccc2F)CC1
  -25%	-22%
32. COc1ccc(CNC(=O)CCc2nc(-c3ccc(OC)cc3)no2)cc1
  -1%	14%
33. Cc1c2cnn(CC(=O)N3CCN(c4ccc(F)cc4)CC3)c(=O)c2c(C)n1Cc1ccc(F)cc1
  ?	?
34. Cc1oc2c(c(C)cc3oc(=O)c(CC(=O)NCCc4ccccc4)c(C)c32)c1C
  -16%	-12%
35. CCc1c(C)sc2c1CCN(Cc1ccccc1C#N)C2c1ccccc1 (stereo not drawn)
  ?	-13%
36. O=C1CC(c2ccccc2)Cc2[nH]c(=O)c(C(=O)Nc3ccc(OC(F)(F)F)cc3)cc21 (stereo not drawn)
  -7%	-4%
37. CNS(=O)(=O)c1cn(CC(=O)N2CCN(c3ccc(C)cc3C)CC2)cc1S(=O)(=O)NC
  -2%	-2%
38. CCCC1=Nc2cc(C(=O)NCCOC)ccc2Sc2ccccc21
  ?	?
39. CCOC(=O)[C@H](CCc1ccccc1)N[C@H]1CCc2ccccc2N(CC(=O)O)C1=O
  .	-17%&-8%
40. Cc1cccc(NC(=O)C(=O)NCCc2csc(-c3ccc(F)cc3)n2)c1C
  -27%	-28%
41. COc1ccc(N2CC(NC(=O)c3cc4ccccc4o3)CC2=O)cc1 (stereo not drawn)
  -4%	4%
42. CCOc1ccccc1CN1CCc2nc(Nc3ccccc3)ncc2C1
  -24%	-17%
43. CCOC(=O)c1ccc(N2C(=O)Cc3cc(OCC)c(OCC)cc3C2c2ccccc2)cc1 (stereo not drawn)
  -21%	-10%[11.5 µM]
44. CCOC(=O)c1ccc(NC(=O)c2cnc3c(-c4ccc(F)cc4)c(C)nn3c2C)cc1
  -8%	-14%
45. COc1ccc(-c2noc(-c3ccc(NCc4ccccc4OC)c([N+](=O)[O-])c3)n2)cc1
  6%	-7%
46. Cc1ccc(-c2cc(C(=O)N3CCN(S(=O)(=O)c4ccc(Br)cc4)CC3)[nH]n2)c(C)c1
  1%	-4%
47. CCC(=O)Oc1c(Sc2ccc(Cl)cc2)c(C)nn1-c1ccccc1
  -12%	-25%
48. Cc1cccc(N2CCN(S(=O)(=O)c3ccc(F)c(C(=O)Nc4cccc(Cl)c4C)c3)CC2C)c1 (stereo not drawn)
  9%	?
49. COc1ccc(-c2noc(-c3nnn(-c4ccc(C(C)C)cc4)c3C)n2)cc1OC
  -22%	3%
50. O=c1[nH]c(SCc2cccc(Cl)c2)nc2c1CCC2
  -3%	0%
51. COc1ccc(OC)c(CNC(=O)CCCn2c(=O)c3cccn3c3cccnc32)c1
  -11%	-11%
52. CCC1(c2cnc[nH]2)Cc2ccccc2C1
  .	-5%
53. Cc1ccc(Nc2nnc(-c3cc4c(ccc5ccccc54)oc3=O)s2)cc1
  -12%	-4%
54. CNC(=O)c1c(NC(=O)Cc2coc3ccc(OC)cc23)sc2c1CCCC2
  -2%	?
55. Cc1nn(C(C)C(=O)NCc2ccco2)c(=O)c2nn(-c3ccccc3)c(C)c12 (stereo not drawn)
  -7%	-16%
56. Cc1cc(C)cc(-n2c(SCC(=O)N3CCOCC3)nc3c([nH]c4ccccc43)c2=O)c1
  -11%	-16%
57. COc1cccc(NC(=O)Cn2c(=O)n(-c3ccc(Cl)cc3)c(=O)c3oc4ccccc4c32)c1
  ?	-23%
58. CCN(CC)S(=O)(=O)c1ccc(NC(=O)c2c(C)oc3ncnc(N4CCCCC4)c23)cc1
  ?	0%
59. CSc1ncc(Cl)c(C(=O)Nc2c(C(=O)Nc3cccc(C)c3)oc3ccccc23)n1
  2%	-8%
60. COc1ccc(Cl)cc1NC(=O)CSC1=Nc2ccccc2C2=NC(CC(=O)NCc3cccs3)C(=O)N12 (stereo not drawn)
  ?	-27%

Following part.
Under each structure: PMP22 txn	HTT promoter inh
61. CCN(CC)S(=O)(=O)c1nnc(NC(=O)c2ccc(C)cc2)s1
  ?	5%
62. CCOC(=O)c1c(N)n(-c2ccc(Cl)c(Cl)c2)c2nc3ccccc3nc12
  -20%	2%
63. CC(=O)Nc1c(C)nn(-c2ccccc2)c1N1CCC(C(=O)NCc2ccccc2Cl)CC1
  ?	-14%
64. COc1ccccc1C(=O)Nc1ccc2c(c1)nc(CN1CCCCC1)n2C
  1%	-3%
65. Cc1ccc(C)c(NC(=O)c2cc(S(=O)(=O)NCCc3ccccc3)ccc2F)c1
  -29%	?
66. Cc1ccc(C)c(N2CCN(C(=O)c3cnc4c(-c5ccccc5)c(C)nn4c3C)CC2)c1
  2%	-16%
67. COc1cccc(CNC(=O)c2ccc3c(c2)N(Cc2ccc(C(F)(F)F)cc2)C(=O)c2ccccc2S3)c1OC
  -1%	-24%
68. O=C(Nc1nnc(N2CCCC2)s1)Nc1cc(F)ccc1F
  -5%	10%
69. COC(=O)C(NC(=O)CCc1c(C)nc2c(-c3ccccc3)c(C)nn2c1C)C(C)C (stereo not drawn)
  -10%	-19%
70. O=C(NCc1ccccc1)c1ccc(CNS(=O)(=O)c2ccc(Br)cc2)cc1
  -20%	-18%
71. CCCc1nnc(NC(=O)C(CC)Sc2nnc3c4ccccc4n(C)c3n2)s1 (stereo not drawn)
  2%	-23%
72. COc1ccc(-c2noc(C3CC(=O)N(c4cc(C)cc(C)c4)C3)n2)cc1 (stereo not drawn)
  -17%	0%
73. CCn1c(=O)c2sccc2n2c(CCC(=O)Nc3ccc(C(C)C)cc3)nnc12
  ?	-8%
74. Cc1ccc(C)c(NC(=O)c2nnn(Cc3ccc(F)cc3Cl)c2N)c1
  ?	?
75. CCOC(=O)c1cc(OC(=O)c2cccc(C)c2)n(-c2ccccc2)n1
  -3%	-15%
76. Cc1ccc(CCNC(=O)c2sc3ncccc3c2-n2c(C)ccc2C)cc1
  ?	?
77. CCOc1ccc(-n2c(=O)c3c(C)c(C)sc3n(Cc3c(F)cccc3Cl)c2=O)cc1
  0%	-5%
78. Cc1ccc(Nc2sc(C(=O)c3ccccc3)c(N)c2C(=O)NC(C)C)cc1
  -15%	-16%
79. Cc1ccc(NC(=O)C2CCN(S(=O)(=O)c3cccs3)CC2)cc1
  -41%	-29%
80. O=C(NCc1cccc(F)c1)c1ccc(CS(=O)c2ccccc2Cl)o1 (stereo not drawn)
  -62%	-6%
81. COc1cc(OC)c(NC(=O)c2c3c(nc4ccccc24)C(=O)N(C2CCCCC2)C3)cc1Cl
  ?	-28%
82. CCOC(=O)c1c(C)[nH]c(C)c1S(=O)(=O)N1CCCC(C(=O)Nc2cc(C)ccc2C)C1 (stereo not drawn)
  7%	-8%
83. Cc1cccc(NC(=O)CSc2nc(=O)n(Cc3cccnc3)c3c2CCC3)c1
  ?	0%
84. CCOC(=O)c1c(NC(C)=O)c2c3c(sc2n1Cc1ccc(Cl)cc1)CCCC3
  4%	-9%
85. COc1ccc(CCNC(=O)c2cc3c(=O)oc4ccc(C)cc4c3s2)cc1OC
  ?	-6%
86. Cc1ccccc1NC(=O)c1ccc(N(Cc2ccccc2)S(C)(=O)=O)cc1
  ?	?
87. CC1=C(c2ccc(C)cc2)S(=O)(=O)NC1=NCc1ccccc1Cl
  -12%	-6%
88. CC1CCN(S(=O)(=O)c2ccc3c(c2)c(=O)c(C(=O)NCCc2ccccc2)cn3C)CC1
  -6%	-4%[11.5 µM]
89. C[C@@H]1CCN(C(=O)CC#N)C[C@H]1N(C)c1ncnc2[nH]ccc12
  .	-4%
90. Cc1ccc2oc(-c3ccc(C)c(NC(=O)c4ccc(-c5ccccc5[N+](=O)[O-])o4)c3)nc2c1
  ?	-2%
91. COC(=O)c1ccccc1NC(=O)CCn1nc(C)c2c(C)n(-c3ccccc3)nc2c1=O
  -19%	-3%
92. Cc1nnc(N2CCCC(C(=O)Nc3cc(F)ccc3F)C2)c2nn(-c3ccccc3)c(C)c12 (stereo not drawn)
  -21%	-4%
93. Cc1ccc(-c2onc(C)c2C)cc1S(=O)(=O)Nc1cccc(Cl)c1C
  -20%	?
94. C=Cc1ccc(CSc2nnc(C)n3c2cc2occc23)cc1
  -6%	-14%
95. CCOC(=O)N1CCN(Cc2nc3cc(NC(=O)c4cccc(C)c4)ccc3n2C(C)C)CC1
  ?	?
96. O=C(COc1ccc(Br)cc1)Nc1ccc(C(=O)OC2CCCCC2)cc1
  -4%	11%
97. CCOC(=O)c1c(-c2ccc(C)cc2)csc1NC(=O)c1cc(=O)c2cc(Cl)ccc2o1
  -9%	0%
98. COc1ccc(NS(=O)(=O)c2c(C)nc3scc(C)n3c2=O)cc1
  ?	?

Screening results deposited in PubChem by National Center for Advancing Translational Sciences (NCATS).
